Screening results deposited in PubChem by National Center for Advancing Translational Sciences (NCATS).
gsp ag: agonists of gsp mutant (McCune-Albright syndrome); 0.13% of 340,000 active; Potency, µM (titrated, usually from 76.9 µM), for inactives: at the highest dose activation (cAMP increase), most hits filed as activators; AID 624287; gsp mutant cells, cAMP HTRF, 30 min; control for the full effect not named in the record; active = well fitted activation curve with a large enough effect; inconclusive = small, poorly fitted or top-dose-only effect, or another doubt; inactive = no such curve, though single readings can be large or run the other way; cell line not stated here;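 further: phosphodiesterase inhibitor Ro 20-1724 added with compounds to block cAMP breakdown; potency means the concentration at half of the fitted maximal effect; nearly all actives have a fitted effect of over 60% in size; about a fifth of the inactives were tested at one dose only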
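Cells stably selected in G418 were plated at 2000/well, grown 16-24 hr, then given compounds in DMSO with the PDE inhibitor […] (300 uM solution added) for 30 min at 37C; cAMP was read by HTRF.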
TRPV1 potentiator: enhances activation of the human vanilloid receptor TRPV1. 0.02% of 320,000 active. Q8NER1. TRPV1-expressing cells, Fluo-8 calcium influx, capsaicin EC20 potentiation; host cell line not named in the record; control for the full effect not named in the record. potentiation, % at 8.33 µM. AID 540277; active means potentiation above 80%; inconclusive means 30% to 80%; inactive means below 30%; further: 0% is about no effect
Target sequence (Q8NER1 whole entry, looked up): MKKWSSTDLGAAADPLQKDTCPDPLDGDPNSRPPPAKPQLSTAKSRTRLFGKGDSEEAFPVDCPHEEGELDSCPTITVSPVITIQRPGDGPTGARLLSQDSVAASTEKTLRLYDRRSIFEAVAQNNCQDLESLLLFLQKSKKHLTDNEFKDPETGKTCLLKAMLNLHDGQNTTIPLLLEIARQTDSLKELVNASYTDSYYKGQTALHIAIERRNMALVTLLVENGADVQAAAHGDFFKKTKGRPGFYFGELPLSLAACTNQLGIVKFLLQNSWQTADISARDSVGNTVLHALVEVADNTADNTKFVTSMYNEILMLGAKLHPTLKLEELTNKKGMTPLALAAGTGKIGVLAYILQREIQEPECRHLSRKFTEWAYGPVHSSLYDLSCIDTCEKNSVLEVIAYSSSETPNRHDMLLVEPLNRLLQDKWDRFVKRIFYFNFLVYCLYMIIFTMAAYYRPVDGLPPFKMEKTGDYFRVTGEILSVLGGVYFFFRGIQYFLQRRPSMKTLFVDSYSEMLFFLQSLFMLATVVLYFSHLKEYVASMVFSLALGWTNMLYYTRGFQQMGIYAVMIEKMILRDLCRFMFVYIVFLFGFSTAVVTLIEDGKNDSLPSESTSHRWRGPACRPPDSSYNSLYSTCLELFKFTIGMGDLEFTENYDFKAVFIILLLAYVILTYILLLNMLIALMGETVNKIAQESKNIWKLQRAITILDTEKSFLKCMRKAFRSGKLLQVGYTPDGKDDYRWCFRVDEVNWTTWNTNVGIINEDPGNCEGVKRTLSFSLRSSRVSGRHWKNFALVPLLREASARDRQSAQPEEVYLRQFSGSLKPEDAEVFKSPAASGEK
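TRPV1-expressing cells were cultured overnight at 35.5C and loaded with Fluo-8 calcium dye for 40 to 90 min at room temperature. After a 10 s baseline, compound was added and calcium influx was read kinetically for 3 min (ex 480/em 520 nm).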
D2 PAM: positive allosteric modulators of human D2 dopamine receptor | P14416 | DiscoveRx D2 beta-arrestin cells, luminescence, 90 min; 100% = 57 uM dopamine signal | potentiation, % (test concentration not listed) | 0.23% of 360,000 active | AID 624464; active = potentiation of 50% or more; inconclusive = 30% to 50%; inactive = 30% or less;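 further: compound concentration not given in the record; tested on top of an EC20 dose of dopamine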
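PathHunter beta-arrestin assay in DiscoveRx D2 cells. Compounds were added with an EC20 of dopamine (50 nM final) for 90 min at 37 deg C. Luminescence was read 1 h after detection reagent, with 57 uM dopamine as the EC100 control.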
gsp antag: antagonists of gsp mutant (McCune-Albright syndrome). Potency, µM (series often up to 76.9 µM), for inactives: at the top dose activity change, negative = inhibition, hits mostly inhibitors. AID 624288. 0.4% of 340,000 active. gsp-mutant cells, cAMP HTRF, 30 min; control for the full effect not named in the record; active = falling curve of any shape with a large fitted effect; inconclusive = falling curve, mostly with a smaller effect; inactive = flat or rising curve; cell line not stated here;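 further: intracellular cAMP measured with PDE inhibitor Ro 20-1724 present during compound exposure; potency means the concentration at half of the fitted maximal effect; on the % scale 0 is the no-effect control and ±100 the full control effect; nearly all actives have a fitted effect of over 65% in size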
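Cells, 2000/well, grown 16–24 h in DMEM 10% FBS with 0.5 mg/ml G418, then compounds plus […] (300 uM addition stock), 30 min at 37C. cAMP read by HTRF (cAMP-d2 and anti-cAMP antibody-K in lysis buffer) after 30 min RT.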
Sfp inh: inhibitors of Bacillus subtilis Sfp phosphopantetheinyl transferase. Biochemical Sfp PPTase activity, qHTS. Potency, µM, for the others: max response, negative = inhibition, most hits filed as inhibitors. 3.5% of 310,000 active; active means well fitted inhibition curve with a large enough effect; inconclusive means small, poorly fitted or top-dose-only effect, or another doubt; inactive means no such curve, though single readings can be large or run the other way;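 further: the enzyme is Sfp with the accession as filed and its product quenches rhodamine fluorescence; potency means the concentration at half of the fitted maximal effect; 0% = enzyme reaction without inhibitor and -100% = no enzyme wells; top concentration of the series not given in the record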
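Sfp 15 nM + cpd, 15 min RT; start w/ rhodamine-CoA 5 uM, BHQ-2-YbbR 12.5 uM (final); 50 mM Hepes pH 7.6, 10 mM MgCl2, 0.01% NP-40, 0.01% BSA; read 525/598 nm at 0 and 30 min.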
Menin-MLL FL inh: displaces fluorescein MLL peptide from human menin. Fluorescence polarization, fluorescein-MLL peptide displacement from menin. FP activity change, % at 61.4 µM. 290,000 tested, under 10 active; inconclusive = falling polarisation curve, or a change in total fluorescence; inactive = total fluorescence flat and polarisation flat or rising; no compound was filed as active; the % refers to the polarisation; negative = inhibition;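 further: % of control where 0% means no effect; inhibitors lower the polarisation; unlabelled MLL peptide was the positive control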
ClpP mod: qHTS Assay for Activators of ClpP; ATP-dependent Clp protease proteolytic subunit (Bacillus subtilis (strain 168)), P80244; purified B. subtilis ClpP, FRET peptide cleavage, 20 min; Potency, µM (top dose mostly 57.5 µM), inactives show top-dose activity change, negative = active; 1.9% of 340,000 active; AID 651965, 2013; active = well fitted falling curve with a large enough effect; inconclusive = small, poorly fitted or top-dose-only effect; inactive = no such curve, though single readings can be large or run the other way; further: potency means the concentration at half of the fitted maximal effect; the source files actives as falling curves though it sought activators and does not explain the sign; nearly all actives have a fitted effect of over 65% in size; many hits overshoot -100%
Target sequence (P80244 whole entry, looked up): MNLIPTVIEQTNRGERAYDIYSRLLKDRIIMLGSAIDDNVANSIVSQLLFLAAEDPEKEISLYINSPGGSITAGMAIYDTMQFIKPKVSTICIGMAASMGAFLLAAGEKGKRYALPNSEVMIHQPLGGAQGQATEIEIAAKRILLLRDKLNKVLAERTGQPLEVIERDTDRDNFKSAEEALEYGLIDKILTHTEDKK
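Purified B. subtilis ClpP, 10 microg/mL final in Tris/HCl pH8 with KCl, BSA, glycerol and Tween-20, cleaved an Abz/nitrotyrosine-quenched decapeptide. Fluorescence (ex 320, em 430) was read at 0 and 20 min at room temperature. Delta was normalized to 5.8 microM ADEP and DMSO/no-enzyme controls.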
* = called active by the depositor; u = inconclusive; x = no result given; & = joins results of further samples; [ ] = another dose, or the depositor's remark.

SMILES | gsp ag | TRPV1 potentiator | D2 PAM | gsp antag | Sfp inh | Menin-MLL FL inh | ClpP mod
CCOC(=O)C(=O)Nc1nc(-c2ccccc2)c(CC)s1 | 18% | -13 | 9 | 1% | 12% | -1.8 | 2.5%
CCOC(=O)c1cnc(Nc2nc3ccccc3o2)nc1C | 1% | -1 | -2 | -2% | 6% | 3.0 | -1.3%
CCOC(=O)CSc1nnc(NC(=O)CN2CCN(C=O)CC2)s1 | -5% | 0 | -9 | -2% | 2% | -4.8 | 1.0%
CCC(C)c1ccc(O)c(NC(=S)NC(=O)c2cccs2)c1 (stereo not given) | u | x | -35 | x | x | x | 0.7%
O=C(CSc1ccccc1)NN1C(=O)c2ccccc2C1=O | -1%[15.4 µM] | 5 | -24 | 4% | 5% | -0.9 | 3.1%
COc1ccc(-c2nc(CS(=O)CC(=O)NCC3CCCO3)c(C)o2)cc1 (stereo not given) | -11% | x | 0 | 5% | -2% | 2.1 | 4.3%
COc1ccc(NC(=O)C2CCCN(S(=O)(=O)c3ccc4[nH]c(=O)ccc4c3)C2)cc1OC (stereo not given) | u | -8 | -1 | 1% | 9% | 2.8 | 5.2%&1.7%
COc1ccc(CNC(=O)C2CC(c3ccccc3[N+](=O)[O-])=NO2)cc1 (stereo not given) | x | x | -5 | -3% | 3% | -0.4 | -2.5%
COCCCNC(=O)Cn1cnc(C(=O)Nc2ccc(C)c(C)c2)n1 | x | x | 3 | 5% | x | x | -0.8%
COc1cccc(NC(=O)Cc2nc(-c3ccccc3)sc2-c2ccc(C)cc2)c1 | -22% | 3 | 1 | -6% | -4% | 7.6 | x
O=C(Nc1cccc(F)c1)c1cc(S(=O)(=O)N2CCC(C(=O)O)CC2)ccc1F | 10% | 6 | 1 | 9% | 3% | -1.1 | 0.0%
O=C(Nc1ccccc1C(=O)NC(Cc1ccccc1)C(=O)NC1CCCCC1)c1ccccc1 (stereo not given) | -26% | -8 | -26 | -7% | u | 5.7 | -16%
Cc1ccc(OCc2cc(C(=O)NCCn3cccn3)no2)cc1C | -9% | -21 | -10 | 4% | 9% | x | -1.3%
COC(=O)/C(=C/c1ccco1)NC(=O)c1ccccc1 | -45%[inhibitor] | -13 | -14 | 1% | -2% | 5.5 | -1.3%
O=C(NCCCNC(=O)c1c(F)cccc1F)c1c(F)cccc1F | -74%[inhibitor] | 7 | -8 | 4% | 13% | -6.6 | 0.8%
COc1cc(/C=N/NC(=O)C2=NNC(=O)C2C)ccc1O (stereo not given) | 17% | -5 | -1 | -6% | 50µM* | 2.4 | 0.6%
CC1CCN(C(=O)c2[nH]cnc2C(=O)N[C@H](C)c2ccccc2)CC1 | -63%[inhibitor] | -6 | -11 | 4% | x | x | 1.1%
CC(C)Nc1nc(NC(C)C)nc(Oc2ccc(=O)n(C)n2)n1 | -22%[15.4 µM] | -16 | -1 | 14% | -4% | -7.2 | x
CN(CCC1CCOCC1)C(=O)CC1C(=O)NCCN1Cc1c(F)cccc1Cl (stereo not given) | 4%[15.4 µM] | 15 | 2 | 0% | 14% | -2.0 | -15%
O=C(Nc1nncs1)c1cc(-c2ccncc2)nc2ccc(Cl)cc12 | -18% | -6 | 10 | 3% | 2% | x | -1.6%
CN(CC(=O)NCc1ccc(F)cc1)S(=O)(=O)c1ccc2c(c1)c(=O)n(C)c(=O)n2C | 45% | 1 | -7 | -3% | 12% | -11 | -1.3%
CCCc1cc(=O)oc2cc(C)cc(OCC(=O)N3CCC(C(N)=O)CC3)c12 | x | 10 | 21 | 6% | 5% | -0.4 | 4.5%
CCOc1ccccc1NC(=O)Nc1ccsc1C(=O)OC | -22% | -5 | -15 | 0% | 4% | x | -1.3%
Cc1nn(-c2ccc(Cl)cn2)c2c1C(=O)CC(C)(C)C2Br (stereo not given) | x | x | 13 | -21% | x | x | -0.2%
Cc1ccc2sc(NNC(=O)C3=COCCO3)nc2c1C | 20% | 7 | 3 | -10% | -1% | -1.5 | x
Remaining list, next part
SMILES | gsp ag | TRPV1 potentiator | D2 PAM | gsp antag | Sfp inh | Menin-MLL FL inh | ClpP mod
COc1cccc(OCCCCN2CCCCC2)c1 | 15% | -4 | -20 | -4% | 3% | -4.2 | -1.8%
CCn1c(SCCC#N)nnc1-c1ccncc1 | -72%[inhibitor] | 4 | 14 | 0% | 12% | 0.3 | -1.0%
CCOC(=O)N1CCN(Cc2nc3cc(NC(C)=O)ccc3n2C)CC1 | 28%[15.4 µM] | 2 | -1 | -3% | -3% | 4.8 | 0.1%
CCOC(=O)c1nnc(-c2ccccc2)nc1Oc1ccccc1Cl | -1% | 15 | -24 | -8% | -22% | -6.7 | 1.0%
CCN(Cc1ccccc1)C(=O)COC(=O)c1c(C)nsc1NC | -17% | -19 | 0 | -13% | x | x | -0.7%
Cc1cccc(C)c1NC(=O)CNC(=O)C1CC(=O)N(Cc2ccccc2)C1 (stereo not given) | -18%[15.4 µM] | -7 | 13 | 25% | x | x | x
Cn1ncc(Cl)c1C(=O)NCc1cc(C(C)(C)C)n[nH]1 | 32% | -3 | -10 | 3% | 13% | -1.7 | -4.1%
CCCn1c(=N)n(CCOc2ccc(OC)cc2)c2ccccc21 | 5% | 1 | -8 | 19% | 20% | 1.0 | -0.6%
CC(C)C1Oc2ccccc2C(=O)N(CC(=O)c2ccc3c(c2)OCCO3)C1=O (stereo not given) | -7% | 9 | -4 | -2% | -25% | x | -5.8%
CSc1nc2[nH]c(=O)[nH]c2c(=O)[nH]1 | -1% | x | -8 | 11% | x | x | x
O=S(=O)(O)c1nc2ccccc2n1CCOc1ccccc1 | -37%[inhibitor] | -9 | -13 | 9% | 21% | 1.5 | -0.6%
O=C(CSc1nnc(-c2ccco2)n1-c1ccccc1)NCCc1ccccc1 | 16% | 7 | -29 | -3% | 7% | -1.3 | -1.4%
Nc1c(C(=O)NCc2ccccc2)sc2nc(N3CCOCC3)c3c(c12)CCCC3 | u | -6 | 11 | 14% | -19% | 2.5 | 25µM*
COc1ccc(N2C(N)=C(C#N)C(c3cccnc3)C3=C2CC(C)(C)CC3=O)cc1 (stereo not given) | 25% | 3 | -19 | -7% | 11% | 3.3 | -6.0%
CON(C)C(=O)/C=C/c1ccc([B-](F)(F)F)cc1 | x | x | 3 | 0% | x | x | 1.3%
CCOC(=O)N1CCN(C(=O)c2ccc3c(c2)sc2nc(-c4ccc(OC)cc4)cn23)CC1 | 27% | -4 | 14 | u | 0% | 4.6 | -8.1%
C#CCOc1ccc2ccccc2c1/C=C(/C#N)c1ccc(C(=O)O)cc1 | 8%[15.4 µM] | -14 | -12 | -36% | 6% | -6.2 | -0.7%
CCN(CC)c1nc(N)c2c(N)nc3c(c2c1C#N)CC(c1ccccc1)O3 (stereo not given) | 5% | 6 | -4 | -9% | -9% | u | 28µM*
CCN1C(=O)[C@H]2[C@@H](c3ccc(-c4ccc(Cl)c(Cl)c4)cc3)N[C@@](CC(C)C)(C(=O)OC)[C@H]2C1=O | x | -15 | -15 | -5% | x | x | -20%
CCOc1ccc(N(CC(=O)Nc2ccc(C)c(F)c2)C2=NC3CS(=O)(=O)CC3S2)cc1 (stereo not given) | u | 1 | -25 | 1% | -12% | 0.5 | -2.7%
O=C(O)c1ccc(S(=O)(=O)/N=C2\C=C(Nc3ccccc3F)C(=O)c3ccccc32)cc1 | u | 28 | -7 | u | u | -20 | x
CCC1OC2(C)OC(=N)C1(C#N)C(C#N)(C#N)C2c1ccccc1 (stereo not given) | u | 23 | 6 | -6% | 25% | 2.2 | 22µM*
CCN(CC)S(=O)(=O)c1ccc(OC)c(NC(=O)c2ccc(OC)c([N+](=O)[O-])c2)c1 | 11% | x | -4 | -6% | x | x | 1.8%
Cc1ccc(C(=O)COC(=O)c2cccc(N3C(=O)c4c(C)nc5ccccc5c4C3=O)c2)cc1C | -10%[15.4 µM] | 18 | -3 | 7% | 11% | -0.4 | -0.5%
NC(=O)COC(=O)CNC(=O)c1sc2ccccc2c1Cl | -16% | -7 | -3 | 2% | 2% | -0.1 | x
More records
SMILES | gsp ag | TRPV1 potentiator | D2 PAM | gsp antag | Sfp inh | Menin-MLL FL inh | ClpP mod
COc1cc2c(cc1OC)-c1cc(OCCN3CCOCC3)nc(=O)n1CC2 | 5% | 6 | 4 | 11% | 14% | 19 | 79%
CC(C)C(=O)n1nc(-c2cccnc2)nc1NCc1cccs1 | 16%[15.4 µM] | -4 | -15 | u | 3% | -6.6 | 2.2%
COc1cc(CC(=O)Nc2ccc3c(c2)CCC3)cc(OC)c1OC | 0% | 3 | -18 | -1% | 27% | 0.2 | -17%
CN(c1ccc(C(=O)NCc2ccccn2)cc1)S(C)(=O)=O | -29% | 1 | 3 | 12% | 0% | 4.4 | -0.4%
Cc1cc(NS(=O)(=O)c2ccc(NC(=O)CCN3C(=O)c4ccccc4C3=O)cc2)no1 | -37%[inhibitor] | 5 | -5 | 1% | 6% | 3.4 | -1.9%
COC(=O)c1ccc(C(=O)OC)c(NC(=O)CCc2ccc(C)o2)c1 | u | -24 | -26 | -15% | u | -0.6 | -7.0%
Cc1cc(C)nc(NC(=O)NS(=O)(=O)N2CCCCCC2)n1 | 13% | 7 | -8 | -6%[15.4 µM] | 14% | -0.7 | -8.8%
O=C(c1ccc(CN2CCOCC2)cc1)N1CCN(c2ccccc2)CC1 | 15% | 7 | -18 | 14% | 25% | -2.2 | 0.2%
Cc1ccc(S(=O)(=O)c2nc(S(=O)(=O)c3ccc(C)cc3)c(NCc3ccco3)s2)cc1 | 11% | 3 | -3 | -3% | 15% | -1.0 | -16%
Cc1ccc(S(=O)(=O)N(C)C)cc1NC(=O)COC(=O)c1c(C)noc1C | -3%[15.4 µM] | 9 | -16 | 17% | 7% | 1.5 | 0.1%
Cn1cccc1C(=O)NC1CCCCC1 | -14%[15.4 µM] | u | -4 | 5% | x | x | x
O=c1nc(Nc2cccc(Cl)c2)oc2cc(Cl)oc(=O)c12 | 17% | -8 | 3 | 4% | -3% | u | 0.4%

Compounds as they come; about 5.1% have a hit in one of these screens.
